VDR inhibitor – Inhibitors of the vitamin D receptor (VDR): qHTS | AID 504847, 2011 | hit rate 0.93% among 400,000 | VDR-SRC2-3 peptide fluorescence polarization, 2 h | Potency, µM, inactives show max response, negative = inhibition, most hits filed as inhibitors; active = well fitted inhibition curve with a large enough effect; inconclusive = small, poorly fitted or top-dose-only effect, or another doubt; inactive = no such curve, though single readings can be large or run the other way; also: series mostly up to about 120 µM
Target sequence (P11473 whole entry, looked up): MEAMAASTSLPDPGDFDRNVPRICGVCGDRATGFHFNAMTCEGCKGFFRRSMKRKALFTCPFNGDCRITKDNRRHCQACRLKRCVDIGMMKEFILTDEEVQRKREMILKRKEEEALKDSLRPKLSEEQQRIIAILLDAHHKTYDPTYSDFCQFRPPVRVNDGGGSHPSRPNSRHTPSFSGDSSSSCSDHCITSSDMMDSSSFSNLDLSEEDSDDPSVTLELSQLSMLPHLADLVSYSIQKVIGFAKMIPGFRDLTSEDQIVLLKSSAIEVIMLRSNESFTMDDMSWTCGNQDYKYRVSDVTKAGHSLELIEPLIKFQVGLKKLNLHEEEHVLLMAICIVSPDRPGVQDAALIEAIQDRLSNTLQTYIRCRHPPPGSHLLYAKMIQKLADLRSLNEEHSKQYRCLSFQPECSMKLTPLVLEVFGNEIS
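FP read-out; VDR + SRC2-3 coactivator peptide; 23 nl compound by pintool; 2 h RT incubation; reagents held at 4 deg C, protected from light.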
The depositor's hits bear a star; ? = inconclusive; & = joins results of further samples. % is scaled to controls: 0 for no effect and ±100 for the full control effect; potency is read from the fitted curve at half-maximal effect. These rows are one share of the data (hit frequency here may not be typical).

Compound	VDR inhibitor
Cc1nonc1C1CCCN1C(=O)c1cc(COc2cccc(C(F)(F)F)c2)on1 (stereo not given)	-16.7%
O=C(C(Cc1ccccc1)n1cccc1)N1CCc2ccccc21 (stereo not given)	-14.1%
Cn1c(=O)cc(SCC(=O)N2CCN(C3CCCCC3)CC2)c2ccccc21	4.8%
O=C1CCC/C(=N/Nc2ccc(Cl)cc2)C1	?
COC(=O)c1cc(=O)[nH]c(SCc2cccc(C)c2)n1	2.5%
CCn1nc(C)c(CCN(C)C(=O)Nc2cc(OC)c(OC)c(OC)c2)c1C	0.5%
COc1ccccc1C(=O)Oc1ccc(C(c2c(C)[nH][nH]c2=O)c2c(C)[nH][nH]c2=O)cc1	?
CCN(CC(=O)NCCCN1CCOCC1)S(=O)(=O)c1ccc(Cl)cc1	-8.8%
O=C1C(=C(I)I)c2ccccc2-c2ccccc21	35.5µM*
COc1ccc(C2/C(=C(/O)c3ccc(Cl)cc3)C(=O)C(=O)N2CCN2CCOCC2)c(OC)c1 (stereo not given)	-0.2%
COC(=O)c1cc(NC(=S)N2CCN(C(=O)C3CCCO3)CC2)cc(C(=O)OC)c1 (stereo not given)	5.5%
Cc1ccc(Cn2ccc(-c3cnc(-c4ccccc4)s3)n2)cc1	6.3%
COC(=O)[C@]1(C)N[C@H](CN(C)C(=O)Nc2ccc(C)cc2)[C@@H]2C(=O)N(Cc3ccccc3)C(=O)[C@@H]21	15.6%
CCCCn1c(N)c(N(CCOC)C(=O)c2sc3cc(F)ccc3c2Cl)c(=O)[nH]c1=O	1.0%
NC1=NC(=Nc2cccc(Cl)c2)c2ccccc21	-29.5%

(cont.)
Compound	VDR inhibitor
COc1ccc(-n2nc3c(c2NC(=O)C(C)Cl)CSC3)cc1 (stereo not given)	?
CC1(C)CC(=O)C=C(Nc2ccc([N+](=O)[O-])cc2)C1	10.5%
Cc1nn(S(=O)(=O)c2ccc(Br)cc2)c(C)c1S(=O)(=O)N1CCCCCC1	2.7%
Cc1ccc(CNc2ccc3c(c2)OCO3)cc1	-23.1%
CCN1CCN(C(=O)CN(C)S(=O)(=O)c2ccc(Cl)cc2)CC1	1.5%
O=C(CSc1n[nH]c(-c2ccccc2Cl)n1)N1CCN(c2ccc(F)cc2)CC1	11.3%
COc1ccc(NC(=O)[C@@H](NC(=O)c2ccccc2F)C(C)C)cc1S(=O)(=O)N1CCOCC1	-6.8%
CC(=O)C1=C(O)C(=O)N(c2cccc(C(=O)O)c2)C1c1ccccc1F (stereo not given)	5.9%
Cc1cccc(OCC(=O)NCC(=O)n2nc(C)cc2C)c1	-9.7%
CCC(=O)c1ccc(O)c(OC)c1	9.9%
Cc1noc(C)c1CSCC(=O)Nc1nnc(CC(C)C)s1	1.5%
COc1ccc(/C(N)=N/OC(=O)CCCc2ccccc2)cc1OC	-16.4%
Cc1ccc(N(C(=O)Cn2nnc(-c3ccc(F)cc3)n2)C(C(=O)NC(C)(C)C)c2ccncc2)cc1 (stereo not given)	13.5%
COc1ccc(S(=O)(=O)N2CCN(Cc3cc(OC)c(OC)cc3OC)CC2)cc1	-15.7%
CCCc1cc(=O)[nH]c(Nc2ccc(Cl)cc2)n1	-10.5%

3 entries already listed, arranged by length of the SMILES, high to low.
Compound	VDR inhibitor
O=C(CSc1n[nH]c(-c2ccccc2Cl)n1)N1CCN(c2ccc(F)cc2)CC1	11.3%
CC1(C)CC(=O)C=C(Nc2ccc([N+](=O)[O-])cc2)C1	10.5%
CCCc1cc(=O)[nH]c(Nc2ccc(Cl)cc2)n1	-10.5%

(listing goes on)
Compound	VDR inhibitor
CN(C(=O)c1cccs1)c1ccc(OCC(=O)N2CCC(C(N)=O)CC2)cc1	20.8%
CC1CCCCN1C(=S)NC(=O)c1cc(Br)ccc1Cl (stereo not given)	1.6%
COc1ccccc1OCc1ccc(C(=O)NCC2CCCO2)cc1 (stereo not given)	7.0%
CN(C)CCN(C(=O)c1cccc(Cl)c1)c1nc2c(Cl)cccc2s1	-17.2%
COC(=O)C(O)(CC(=O)Nc1ccccc1OC)C(F)(F)F (stereo not given)	-2.5%
CCc1cc(C(=O)NC2CCCN(Cc3ccccc3F)C2)n(C)n1 (stereo not given)	9.5%
Cc1ccc(S(=O)(=O)N2CCOCC2)cc1C(=O)NNC(=O)c1ccoc1C	-0.1%
Cc1ccc([N+](=O)[O-])c(OCCCNCC(C)O)c1 (stereo not given)	0.1%
CCN(CC)CCOC(=O)c1ccc(NC(=O)c2cc3c(=O)n(CC)c4ccccc4c3s2)cc1	15.7%
CCCN(CCC)c1nc(-c2ccccc2F)nc2ccccc12	4.9%
CCCCn1c(N)c(N(Cc2ccccc2OC)C(=O)c2cc(=O)[nH]c3ccccc23)c(=O)[nH]c1=O	-0.2%
COc1ccc(C2/C=C\CN3CCC[C@H]3C(=O)N2Cc2ccc(F)cc2)cc1 (stereo not given in full)	-2.7%
CC(=O)c1cc2c(cc1N/C(=N/S(=O)(=O)c1ccccc1)c1ccc(Cl)cc1)OCO2	19.7%&-11.2%
CC1CC(C)CN(C(=O)c2ccc3ccccc3c2)C1 (stereo not given)	-2.9%
COc1cccc(/C=C/C(=O)OCC(=O)Nc2nnc(-c3ccccc3)o2)c1OC	-4.3%

Next structures.
Compound	VDR inhibitor
CCCCCCSc1cc(C)nc2ncnn12	-17.3%
Cc1ccc(NC(=O)Nc2ccnc(-c3cccnc3)n2)cc1	-2.4%
CCc1cc(-c2n[nH]c(C)c2-c2nc3ccccc3n2C)c(O)cc1O	-6.2%
O=C(Cc1cccc2ccccc12)Nc1ccc(N2CCOCC2)cc1	-23.1%
C/C(CCC12CC3CC(CC(C3)C1)C2)=N\NC(N)=S	?
COc1ccc(NC2CCCN(C(=O)CCc3cccc(Cl)c3)C2)cc1 (stereo not given)	3.2%
COc1ccccc1NC(=S)N1CCC(NC(=O)NC23CC4CC(CC(C4)C2)C3)CC1	-8.3%
O=C(Nc1cccc(F)c1)c1ccc(S(=O)(=O)N2CCOCC2)cc1	1.1%
Cc1ccc(NC(=O)c2cc(=O)[nH]c3ccccc23)cc1	4.2%
Cc1ccc(C(=O)N/C(=C\c2cccs2)C(=O)NCCc2c[nH]c3ccccc23)cc1C	-5.9%
O=C(COc1ccc(S(=O)(=O)N2CCCC2)cc1)NCC1CCCO1 (stereo not given)	2.0%
N#CCCn1c(SCC(=O)NCCc2ccc(F)cc2)nc2ccccc21	16.8%
COc1cc(OC)c(C(=O)OCC(=O)NCCc2ccccc2)cc1OC	3.9%
CSC1=N/C(=C\c2ccc3c(c2)OCO3)C(=O)S1	-2.7%
COc1cc(C(=O)NCC(=O)NCC(c2ccco2)N2CCCCC2)cc(OC)c1OC (stereo not given)	-4.4%

The list goes on.
Compound	VDR inhibitor
OC(COc1ccc2ccccc2c1Br)Cn1cnc(-c2ccccc2)c1 (stereo not given)	-0.9%
CCOC(=O)c1ccc(NC(=S)NCc2ccco2)cc1	-8.9%
COc1ccc(C2CC(c3ccccc3)=NN2c2ccc(C(N)=O)cc2)cc1 (stereo not given)	-9.4%
COc1ccccc1N1CCN(CC(O)c2ccccc2)CC1 (stereo not given)	14.2%
CCCNC(=O)C1CC(c2cccc(F)c2)=NO1 (stereo not given)	-6.1%
C=CCn1c(N/N=C/c2ccc(O)cc2)nc2ccccc2c1=O	0.1%
Cc1cccc(C(=O)OCC(=O)Nc2nnc(-c3ccccc3)o2)c1O	-21.1%
O=C(NCc1ccco1)c1ccc2c(c1)N(Cc1ccccc1)C(=O)c1ccccc1S2(=O)=O	-11.9%
CCN(CC(=O)Nc1cc(Cl)ccc1Cl)C(=O)c1ccc(-n2cccn2)cc1	-11.9%
CCOC(=O)C(C)Sc1nc2c(c(=O)[nH]c(=O)n2C)n1Cc1ccc(Cl)cc1 (stereo not given)	89.1µM*
CCN(CC)S(=O)(=O)c1cc(C(=O)OCC(=O)NC(=O)c2cccn2C)ccc1C	-17.3%
CN(/C=C/c1c([N+](=O)[O-])c(=O)n(C)c(=O)n1C)c1ccccc1	16.8%
Cc1ccc(NC(=O)Nc2nc3c(s2)CCCCCC3)cc1C	9.2%
COc1ccc(C(=O)NCCCNC(=O)c2cnccn2)cc1	-2.5%
NC(=S)N1CCCc2ccccc21	13.6%

Later entries
Compound	VDR inhibitor
COc1ccc(NC(=O)Nc2ccc([N+](=O)[O-])cc2)cn1	18.7%
COc1ccc(C2=NN(c3nc4ccccc4s3)C(=O)/C2=C\N(C)C)cc1	-11.6%
COc1ccccc1NC(=O)CSc1nnc(-c2ccncc2)n1CC1CCCO1 (stereo not given)	2.8%
O=C(/C=C\c1cccs1)N1CCN(Cc2ccc3c(c2)OCO3)CC1	10.6%
CCC(Sc1nnc2c(n1)[nH]c1ccccc12)C(=O)Nc1ccccc1OC (stereo not given)	9.1%
CC(=O)C1=C(C)OC2(O)c3ccccc3C(=O)C12O (stereo not given)	1.58µM*
OCC(O)CN(c1ccccc1)c1ccccc1 (stereo not given)	5.4%
COc1ccc(N2CCN(C(=O)CSc3n[nH]c(-c4ccccc4Cl)n3)CC2)cc1	9.8%
CCC(=O)Nc1ccc2c(c1)nc1n2CCSC1	-0.9%
CCc1cc(=O)oc2c(C)c(OS(C)(=O)=O)ccc12	8.6%
O=C(c1cccs1)c1cn(CC(=O)N2CCc3ccccc3C2)c2ccccc12	-7.6%
Cc1ccc(Oc2nc(-c3ccccn3)nc3ccccc23)cc1	2.0%
Cc1ccc(-c2nc(N)n(S(=O)(=O)c3ccc(C)cc3)n2)cc1	5.4%
O=c1cc(CN2CCN(S(=O)(=O)c3cccc(Cl)c3)CC2)c2ccc(O)cc2o1	2.3%
CCOC(=O)C1=C(N)Oc2cc(O)ccc2C1c1cccc([N+](=O)[O-])c1 (stereo not given)	13.3%

Further records follow:
Compound	VDR inhibitor
O=C(Cn1nnc(-c2ccc(Cl)cc2)n1)NC1CCS(=O)(=O)C1 (stereo not given)	0.9%
Cc1ccc(SCC(=O)c2ccc(CC(=O)O)s2)cc1	-13.8%
Cc1ccc2nc3c(cc(C(=O)NCCCn4ccnc4)n3C)c(=O)n2c1	-6.7%
COC(=O)c1c(NC(=O)CSc2nnc(CNc3ccc(Cl)cc3)o2)sc(C)c1C	17.1%
CCCNC(=S)N(Cc1ccccc1)Cc1nc2ccccc2c(=O)[nH]1	-7.1%
CCOC(=O)c1cc2c(=O)n3cccc(C)c3nc2n(CC(C)C)c1=NC(=O)c1ccco1	?
CC(C)n1nnnc1SCC(=O)N(C)C1CCS(=O)(=O)C1 (stereo not given)	-11.1%
COC(=O)C1=C(C)OC(N)=C(C#N)C1c1ccco1 (stereo not given)	-1.4%
O=C(CNS(=O)(=O)c1ccccc1)NCC(=O)OCc1ccccc1F	-8.6%
Cc1ccc(C)c(Nc2nn3c(=O)c4ccc(C(=O)NCc5ccccc5)cc4nc3s2)c1	5.5%
CNS(=O)(=O)c1cccc(C(=O)OCC(=O)Nc2ccc(N3CCCCC3)cc2)c1	-17.0%
CCOC(=O)c1cnn(-c2cc(Oc3ccccc3C)ncn2)c1N	6.7%
COc1ccc(S(=O)(=O)N2CC(O)C[C@H]2C(=O)OCC(=O)N2CCCCCC2)cc1 (stereo not given in full)	4.8%
Cc1ccc(NC(=O)COC(=O)Cc2c[nH]c3ccccc23)cc1C	12.9%
Cn1c(CCN2CCCCC2)nc2cc(NC(=O)COc3ccccc3)ccc21	-13.3%

(next part)
Compound	VDR inhibitor
Cc1ccc(S(=O)(=O)N2CCOCC2)cc1NC(=O)COC(=O)c1n[nH]c(=O)c2ccccc12	-8.9%
COc1ccc(NS(=O)(=O)c2cc(NC(=O)CCNC(=O)c3ccco3)ccc2OC)cc1	10.4%
Cc1cc(NC(=O)c2cc3cccc([N+](=O)[O-])c3[nH]2)ccc1F	0.5%
N#Cc1cccc(NC(=O)Cn2cnc(S(=O)(=O)N3CCCC3)c2)c1	-3.0%
CSc1ncccc1C(=O)Nc1nc(C(C)(C)C)cs1	-8.7%
COc1ccc(CN2CCN(C(=O)CC(C)C)CC2)cc1Br	1.3%
CCOC(=O)NC(O)C(=O)c1cccs1 (stereo not given)	-5.3%
CC1=C(C(=O)OC2CCCCCC2)C(c2cccc(Cl)c2)CC(=O)N1 (stereo not given)	?
COc1ccc(-n2c(SCC(=O)NCc3ccco3)nc3c([nH]c4ccccc43)c2=O)cc1	-6.9%&4.3%
O=S(=O)(CCc1nnc(-c2ccc(Br)cc2)o1)c1ccc(Cl)cc1	-2.1%
Oc1ccc(N2CCN(Cc3nc4ccccc4[nH]3)CC2)cc1	3.1%
COc1ccc(OCC(=O)Nc2nnc(S(=O)(=O)N3CCc4ccccc43)s2)cc1	5.9%
Clc1ccccc1Cc1noc(CN2CCN(Cc3ccccn3)CC2)n1	6.8%
COCCCNc1nnc(Cc2ccccc2)c2ccccc12	9.1%
N#CCCn1c(=O)c(-c2ccc(F)cc2)nc2cnc(Oc3cccc(Cl)c3)nc21	0.9%

Next section.
Compound	VDR inhibitor
CCOC(=O)c1cn2nc(Oc3ccc(NC(C)=O)cc3)ccc2n1	8.2%
Cc1cc(-c2c(C)[nH]n(-c3ccc(Cl)cc3)c2=O)n(-c2ccc(Cl)cc2)n1	0.9%
COc1ccc(OC)c(-c2noc(N3CCN(c4cccc(C)c4C)CC3)n2)c1	5.9%
O=C(c1cccs1)N(Cc1cccnc1)c1nc2ccc(F)cc2s1	11.7%

Looked up by structure from above, four records:
Compound	VDR inhibitor
CCOC(=O)c1cn2nc(Oc3ccc(NC(C)=O)cc3)ccc2n1	8.2%
COc1ccc(OC)c(-c2noc(N3CCN(c4cccc(C)c4C)CC3)n2)c1	5.9%
Cc1cc(-c2c(C)[nH]n(-c3ccc(Cl)cc3)c2=O)n(-c2ccc(Cl)cc2)n1	0.9%
O=C(c1cccs1)N(Cc1cccnc1)c1nc2ccc(F)cc2s1	11.7%
